Arbovirus inh: blocks arbovirus infection | arbovirus infection cell-based antiviral screen | inhibition, % at 10 µM | actives 0.37% (n = 200,000) | AID 1251;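 active = inhibition from about 30%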;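 note: bluetongue infection of BSR cells; cell survival read as ATP light after 72 h; 0% = infected wells without compound and 100% = uninfected wells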
Mtb H37Rv: M. tuberculosis H37Rv growth inhibitors, H37Rv strain (AID 1626); M. tuberculosis H37Rv growth inhibition; higher % means a stronger effect; inhibition, % at 10 µM, or IC50 in µM where a hit was titrated; actives 0.95% (n = 220,000);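 active = confirmed in a dose series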;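 note: bacteria incubated seven days before Alamar blue readout; 0% = bacteria only wells and 100% = bacteria with antibiotic wells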
YopH PTP inh: YopH (Yersinia) phosphatase inhibition; inhibition, %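 (about 10 µM by stock and volumes)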; fluorescence Ex485/Em525; actives 0.16% (n = 140,000);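 active = inhibition of 50% or more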;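 note: controls were vehicle for no effect and minimum signal wells for full effect; inactives centre near -20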
RecA splice inh: Mtb RecA intein splicing inhibition | inhibition, %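 (about 9 µM by stock and volumes)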 | P9WHJ3 | AID 2221 | cell-free RecA intein splicing, fluorescence | actives 0.75% (n = 290,000); in the data active = inhibition above about 30%;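 note: 0% = vehicle wells and 100% = reference inhibitor control wells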
Target sequence (P9WHJ3 whole entry, looked up, canonical isoform): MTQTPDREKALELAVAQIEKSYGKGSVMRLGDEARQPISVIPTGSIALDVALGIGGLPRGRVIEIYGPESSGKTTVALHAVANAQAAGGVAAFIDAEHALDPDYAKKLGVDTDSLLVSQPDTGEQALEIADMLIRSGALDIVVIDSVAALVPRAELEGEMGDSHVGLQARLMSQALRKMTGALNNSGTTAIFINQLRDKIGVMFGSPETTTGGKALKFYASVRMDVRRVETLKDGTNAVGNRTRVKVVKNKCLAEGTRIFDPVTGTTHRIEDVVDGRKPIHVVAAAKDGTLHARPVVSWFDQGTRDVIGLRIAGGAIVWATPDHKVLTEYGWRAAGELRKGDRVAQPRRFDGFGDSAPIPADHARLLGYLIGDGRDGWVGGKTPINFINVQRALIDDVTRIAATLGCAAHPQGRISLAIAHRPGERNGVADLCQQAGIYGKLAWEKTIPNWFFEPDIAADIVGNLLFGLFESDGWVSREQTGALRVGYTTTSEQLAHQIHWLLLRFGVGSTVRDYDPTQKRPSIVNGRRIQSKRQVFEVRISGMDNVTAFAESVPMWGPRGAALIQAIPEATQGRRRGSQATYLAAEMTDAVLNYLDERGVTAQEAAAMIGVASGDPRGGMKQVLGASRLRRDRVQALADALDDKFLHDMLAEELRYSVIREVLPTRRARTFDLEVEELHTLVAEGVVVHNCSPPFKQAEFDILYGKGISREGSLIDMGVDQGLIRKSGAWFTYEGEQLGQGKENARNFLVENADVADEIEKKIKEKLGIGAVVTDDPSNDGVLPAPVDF
Mtb bLac sens: beta-lactam sensitization of Mtb H37Rv; M. tuberculosis H37Rv growth with meropenem, percent inhibition; hits of this screen are not shown here; inhibition, % at 25 µM; actives 0.27% (n = 330,000); AID 434955;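 active = about 74% or more and at least 40 points above the plate without the antibiotic, then above 30% in a dose series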;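 note: growth measured after seven days incubation then overnight dye step; 0% = bacteria only wells and 100% = bacteria with antibiotic; twin plates without the antibiotic show which effects depend on it; some results filed as inactive read as strong as hits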
Arbovirus inh repeat: second read-out of Arbovirus inh, no call of its own (marks repeat the call); inhibition, %; measured here: 10K subset replicate screen; many hits read low in the repeat;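 first of two repeat runs on a subset; 0% = infected and 100% = uninfected wells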
* hit, by the source's call; . = no result given. This is a subset (hit frequency here may not be typical).

SMILES	Arbovirus inh	Mtb H37Rv	YopH PTP inh	RecA splice inh	Mtb bLac sens	others
CCC(C)c1ccc(S(=O)(=O)N2CCN3CCCC3C2)cc1 (stereo unspecified)	.	.	.	-0.4	-5
Cc1ccc2c(c1)N(C(=O)CCC(=O)N1CCN(c3ccccn3)CC1)CCO2	.	.	.	-3.1	5
Cc1c(C)c2c(c(C)c1O)CC[C@@](C)(CCC[C@H](C)CCC[C@H](C)CCCC(C)C)O2	.	-1%	.	16	49
COC(=O)n1c(=S)oc2cc(Cl)ccc21	-11	1%	14	0.4	2
Cc1cc(CSc2nc(C)cc(=O)[nH]2)c2ncccc2c1	7	-8%	.	-0.9	-2
Cc1nc2ccccc2c(=O)n1/N=C/c1cc(Br)cc(Br)c1O	.	.	.	0.3	-10
N#CCCN(C(=O)Nc1ccccc1)c1ccccc1	2	-13%	-20	0.2	-11
O=C(CCc1ccc(S(=O)(=O)N2CCOCC2)cc1)Nc1nc(COc2ccccc2)cs1	1	.	-7	1.3	74
COC(=O)c1c(C(=O)OC)c(-c2cccc(C)c2)n2c1CS(=O)(=O)C2	-6	-14%	-14	-4.4	-4
Cc1c(C(C)C)c(=O)n(-c2ccc(S(=O)(=O)NC3CC3)cc2)n1C	6	1%	.	-0.3	2
CCOC(=O)c1cnc2c(c(C)nn2CC)c1Cl	3	-3%	.	4.8	-6
CC1Cc2ccccc2N1C(=O)CSc1nnnn1-c1ccc2c(c1)OCCO2 (stereo unspecified)	0	-2%	-16	-1.5	-5
Cc1ccc(C2=NOC(C)(c3nnc(-c4ccc(F)cc4)o3)C2)cc1 (stereo unspecified)	.	-9%	.	1.7	4
CC1(C)CC(=O)C(CC(=O)NC2CCCc3ccccc32)C(=O)C1 (stereo unspecified)	4	-6%	.	-0.1	8
N#Cc1nc(Cc2ccccc2)oc1NCCCn1ccnc1	-3	5%	-64	-0.6	-4
CCCCN(C(=O)CSc1nncn1-c1ccccc1)c1c(N)n(Cc2ccccc2)c(=O)[nH]c1=O	2	6%	-19	3.8	8
N#Cc1ccc(/C=N/NC(=O)c2cccc(S(=O)(=O)N3CCOCC3)c2)cc1	6	6%	.	-1.3	-11
O=C(CSc1nnc(-c2ccc(S(=O)(=O)N3CCCC3)cc2)o1)NCc1ccco1	9	-4%	-48	1.2	26
O=C(N/N=C/c1c(O)n(C2CCCCC2)c(=S)[nH]c1=O)c1ccccc1	.	.	.	15	19
O=C1CCC([N+](=O)[O-])C(c2cccc(Cl)c2Cl)N1 (stereo unspecified)	5	3%	-15	-0.9	7

Continued; the last 3 above are carried over.
SMILES	Arbovirus inh	Mtb H37Rv	YopH PTP inh	RecA splice inh	Mtb bLac sens	others
O=C(CSc1nnc(-c2ccc(S(=O)(=O)N3CCCC3)cc2)o1)NCc1ccco1	9	-4%	-48	1.2	26
O=C(N/N=C/c1c(O)n(C2CCCCC2)c(=S)[nH]c1=O)c1ccccc1	.	.	.	15	19
O=C1CCC([N+](=O)[O-])C(c2cccc(Cl)c2Cl)N1 (stereo unspecified)	5	3%	-15	-0.9	7
Cc1cc(NS(=O)(=O)c2ccc(NC(=O)c3ccco3)cc2)no1	-3	-7%	-13	-3.4	1
CCN1C(=O)C(CC(=O)Nc2ccccc2)S/C1=N\c1ccccn1 (stereo unspecified)	-2	7%	.	-1.0	4
O=C(COc1ccc(Br)cc1)N(Cc1ccco1)C1CCS(=O)(=O)C1 (stereo unspecified)	.	.	.	-1.4	3
O=C(C1CCCCC1)N1CCCn2c1nc1ccccc12	6	-2%	5	3.4	5
CCOC(=O)c1ccc(NC(=O)C2C3CCC(C3)C2C(=O)O)cc1 (stereo unspecified)	1	>100µM*	-23	1.8	87
CC(=O)n1cc(N(C(=O)CCl)c2ccc([N+](=O)[O-])cc2)c2ccccc21	.	14µM*	.	90*	99
COc1ccc(Cc2nnc(SCC(=O)Nc3ccccc3)[nH]c2=O)cc1	.	.	.	1.0	-8
O=C(NCC1CCCO1)c1sc2cc(Cl)ccc2c1Cl (stereo unspecified)	-3	10%	-8	2.1	-2
COCCCNC(=O)Cc1c(C)c2cc3c(cc2oc1=O)OC(C)(C)CC3	.	.	.	-5.2	-2
N#Cc1cc(-c2ccc(Cl)cc2)cnc1Sc1ccc(F)cc1	-11	0%	-28	-1.7	.
O=C(COC(=O)c1ccccc1O)Nc1cc([N+](=O)[O-])ccc1Cl	.	-5%	.	-0.9	2
CS(=O)(=O)N(CC(=O)NC1CCCC1)c1cccc(F)c1	-1	-4%	-14	2.9	5
Cc1cc(C)cc(NC(=O)c2snc3c(=O)[nH]cnc23)c1	0	5%	-12	.	.
Cn1cnnc1SCc1ccc(C(=O)O)cc1	5	-5%	-27	-2.7	3	Arbovirus inh repeat=5
Cc1cc(S(=O)(=O)Nc2ccc(N(C)C)cc2)c(C)s1	-3	0%	-21	-0.4	-3
CCN(CC(=O)NC)S(=O)(=O)c1ccc(C)cc1	-3	-5%	25	3.7	6
Cc1cccc(NC(=O)CCC(=O)OCc2ccc(Br)cc2)c1	2	8%	-50	0.6	9
N#C/C(=C\c1cn(Cc2ccccc2C#N)c2ccccc12)C(=O)NCc1cccs1	-2	.	-35	-3.5	2
CC(=O)Nc1cccc(/C(C)=N/NC(=O)c2ccc(O)cc2)c1	2	1%	.	-3.7	-1
CC(C)c1nc2cc(C(=O)NC(c3cccnc3)C(F)(F)F)ccc2o1 (stereo unspecified)	.	.	.	3.8	-2

Pulled by structure from above:
SMILES	Arbovirus inh	Mtb H37Rv	YopH PTP inh	RecA splice inh	Mtb bLac sens	others
Cc1cc(NS(=O)(=O)c2ccc(NC(=O)c3ccco3)cc2)no1	-3	-7%	-13	-3.4	1
O=C(COC(=O)c1ccccc1O)Nc1cc([N+](=O)[O-])ccc1Cl	.	-5%	.	-0.9	2
N#Cc1cc(-c2ccc(Cl)cc2)cnc1Sc1ccc(F)cc1	-11	0%	-28	-1.7	.

Next part:
SMILES	Arbovirus inh	Mtb H37Rv	YopH PTP inh	RecA splice inh	Mtb bLac sens	others
Cc1ccccc1NS(=O)(=O)c1ccc(C(=O)NCCCN2CCCC2=O)cc1	.	.	.	0.3	-5
O=c1[nH]c(CSc2nnc3ccccn23)nc2ccccc12	13	-1%	-46	-1.9	97
COc1cc2c(cc1NC(=S)NC(=O)/C=C/c1ccco1)oc1ccccc12	-6	-4%	-4	-0.2	2
COc1ccc(-n2c(COc3ccccc3)n[nH]c2=S)cc1	.	.	.	0.6	1
CN(C)/C=C/C(=O)c1ccc(OCCN(C)c2ccccn2)cc1	.	.	.	1.8	-5
O=C(Nc1nnc(C2CC2)s1)c1cccnc1Oc1ccc(Cl)cc1	.	-2%	.	-4.1	-9
COC(=O)c1cc(S(=O)(=O)NCC2CCN(Cc3cccc(Cl)c3)CC2)c[nH]1	.	.	.	-1.0	4
Cc1cc(-c2ccccc2)nc(N(C)N)c1S(C)(=O)=O	-4	5%	.	1.8	1
Cc1nc(-c2ccc(NC(=O)c3ccccc3)cc2)cs1	-13	-4%	.	0.2	1
C/C(CC(=O)Nc1cc(C)ccn1)=N\NC(=O)c1cccc(C)c1O	.	.	.	7.4	66
COc1ccc(OC)c(C2(O)CSC(=Nc3cccnc3)N2Cc2ccco2)c1 (stereo unspecified)	-6	9%	.	2.5	2
CC(=O)Nc1ccc(S(=O)(=O)N(C)Cc2ccccc2)cc1	9	-7%	.	3.5	7
O=C(COc1ccc(-c2ccccc2)cc1)N/N=C/c1ccccc1Br	-15	-16%	-17	-4.9	-11
C[C@H]1CC[C@@]2(C)[C@@H](CC[C@@H]3[C@@H]2CC[C@]2(C)[C@@H](O)CC[C@@H]32)C1	.	9%	.	15	5
Cc1ccc(C)c(S(=O)(=O)NCc2ccc(C(=O)N3CCC(Cc4ccccc4)CC3)cc2)c1	-25	26%	-8	11	7
Cc1cc(C(=O)N2CCN(Cc3ccc4c(c3)OCO4)CC2)cs1	5	-8%	-26	0.7	-4
Cc1cc(Br)ccc1SCC(=O)OCC(=O)c1c(N)n(C)c(=O)n(C)c1=O	.	-1%	.	-2.1	3
Cc1ccc(/C=N/NC(=O)c2cccc3ccccc23)o1	.	.	.	1.1	1
CC1(c2ccccc2)NC(=O)N(NC(=O)CSc2n[nH]c(N)n2)C1=O (stereo unspecified)	.	0%	.	-0.7	-6
COc1cc2c(cc1OC)C(C(=O)Nc1ccccc1N1CCN(C)CC1)C1c3ccccc3CCN1C2=O (stereo unspecified)	7	0%	.	1.4	-4

A draw from above in order of count of non-hydrogen atoms, low to high.
SMILES	Arbovirus inh	Mtb H37Rv	YopH PTP inh	RecA splice inh	Mtb bLac sens	others
Cc1nc(-c2ccc(NC(=O)c3ccccc3)cc2)cs1	-13	-4%	.	0.2	1
COc1ccc(-n2c(COc3ccccc3)n[nH]c2=S)cc1	.	.	.	0.6	1
Cc1cc(C(=O)N2CCN(Cc3ccc4c(c3)OCO4)CC2)cs1	5	-8%	-26	0.7	-4

The listing continues:
SMILES	Arbovirus inh	Mtb H37Rv	YopH PTP inh	RecA splice inh	Mtb bLac sens	others
CCOC(=O)c1csc(N/N=C2\CCc3ccccc32)n1	.	.	.	16	18
COc1ccc(/C=N/NC(=O)CCCCCNC(=O)c2ccccc2)cc1	-12	10%	-32	-0.7	-1
Cc1nnc(SCC(=O)Nc2ccc3c4c(cccc24)CC3)n1C	18	-1%	25	-1.0	11	Arbovirus inh repeat=-3
COc1ccc(-c2csc(NC(C)=O)n2)cc1OC	0	-2%	-22	-3.9	12
Cc1cccc(C(=O)N/C(=C\c2ccco2)C(=O)N2CCCCCC2)c1	.	.	.	2.9	-5
COc1ccc(C2(C(=O)Nc3c(C)n(C)n(-c4ccccc4)c3=O)CCCC2)cc1OC	4	-6%	4	.	-3
CC(=O)Nc1ccc2nc(NC(=O)COc3cccc(C)c3)sc2c1	-4	5%	.	-1.5	4
COc1cc2c(cc1OC)C1=NC(=O)CN1C(SCc1ccccc1)=N2	-16	3%	-27	.	-6
Cc1cc([N+](=O)[O-])cnc1N1CCOCC1	0	2%	5	3.8	-10
O=C1CCc2cc(S(=O)(=O)N3CCN(C(=O)c4ccco4)CC3)ccc2N1	3	-6%	-52	9.4	-7
O=C(Nc1nnc(SCC(=O)N2CCCCC2)s1)c1c(F)cccc1F	.	.	.	-0.4	3
Cc1cc(C)c2c(n1)sc1c(N3CCN(CCO)CC3)ncnc12	-5	19%	-18	.	15
O=C1CC(NS(=O)(=O)c2cccs2)CN1c1ccc(Cl)cc1 (stereo unspecified)	.	.	.	0.8	-2
O=C(O)/C=C/c1ccc(OCCCF)cc1	0	20%	.	0.5	-1
CC(NC(=O)COc1ccc(Oc2ccccc2)cc1)C(=O)O (stereo unspecified)	-5	-7%	-22	-1.5	-1
Cc1n[nH]c(C)c1C(=O)CC1(O)C(=O)N(CCc2ccccc2)c2ccc(Cl)cc21 (stereo unspecified)	-6	-2%	15	2.6	7
COc1ccc(NC(=O)C(=O)Nc2cccc3cccnc23)c(OC)c1	.	.	.	-8.9	-1
CC(OC(=O)c1ccc2c(=O)n3c(nc2c1)CCCCC3)C(=O)Nc1ncc(Cl)cc1Cl (stereo unspecified)	-6	9%	-24	-1.5	88
O=C(c1ccc(F)cc1F)C1CCN(c2ccc([N+](=O)[O-])cn2)CC1	.	-12%	.	-0.4	-11
C/C(=N\O)C(C)(C)Nc1ccccc1F	.	-8%	.	-1.4	-9
CCCCOc1ccc(C2(C(=O)O)CCCC2)cc1	2	9%	-39	2.0	-13
c1ccc(SCc2nc(-c3ccncc3)no2)cc1	-5	1%	-33	-0.9	6
COc1ccc(CCn2nnnc2C(c2ccccc2)N2CCN(C)CC2)cc1OC (stereo unspecified)	19	.	-39	0.6	-6
Cc1cccc(C)c1NC(=O)CN(C)C(=O)CSC(=S)N1CCCC1	.	.	.	2.4	-4
O=C(O)CCC(=O)N1CCc2cc(S(=O)(=O)N(CCc3ccccc3)Cc3ccccc3)ccc21	-5	-2%	-2	5.2	-4
S=C(Nc1ccc2nc(-c3ccccn3)c(-c3ccccn3)nc2c1)N1CCOCC1	-6	-5%	.	-35	-1
CC(C)CCNC(=O)C1CCCN(S(=O)(=O)c2ccc(-n3cnnn3)cc2)C1 (stereo unspecified)	.	.	.	-1.2	4
O=C1CN(C(=O)c2cc([N+](=O)[O-])ccc2Cl)C(c2ccc(F)cc2)c2cc(F)ccc2N1 (stereo unspecified)	4	10%	-12	-4.2	0
CCO[C@H]1OC(C(=O)NCc2ccccc2)=C[C@@H](c2cn(C(C)=O)c3ccccc23)[C@@H]1CCCO	-3	2%	.	2.5	-3
Clc1ccc(OCc2nc(-c3ccccn3)n[nH]2)cc1	-31	9%	-41	4.5	5
COc1ccc(CCNC(=O)Cc2ccccc2)cc1OC	.	.	.	-0.3	-2
CCc1nc(N2CCCCC2)c2oc3ccccc3c2n1	-6	22%	-4	4.9	23
COCCOC(=O)c1[nH]c2c(c1C)C(=O)C(C(=O)OC)C(C)C2 (stereo unspecified)	20	5%	-35	-1.6	-1
NC(=O)N/N=C1\CCS(=O)(=O)c2ccc(F)cc21	.	.	.	-2.2	3
Cc1ccc(C)n1-c1sc2c(c1C(=O)O)CCCC2	2	-8%	-30	.	-6
CCOc1ccc(C(C)NC(=S)NC2CCCCC2)cc1 (stereo unspecified)	1	6%	.	1.7	4

Source: PubChem
